Arbovirus anti: arbovirus infection inhibition; inhibition, % at 10 µM; AID 1251; 0.37% of 200,000 active; arbovirus infection cell-based antiviral screen;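 active means inhibition from about 30%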;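 further: bluetongue infection of BSR cells; cell survival read as ATP light after 72 h; 0% = infected wells without compound and 100% = uninfected wells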
RecA splice inh: Mtb RecA intein splicing inhibition; inhibition, %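 (about 9 µM by stock and volumes)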; 0.75% of 290,000 active; P9WHJ3; cell-free RecA intein splicing, fluorescence; in the data active means inhibition above about 30%; inconclusive means no clear call, values can overlap the other calls;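 further: 0% = vehicle wells and 100% = reference inhibitor control wells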
Target sequence (P9WHJ3 whole entry, looked up, canonical isoform): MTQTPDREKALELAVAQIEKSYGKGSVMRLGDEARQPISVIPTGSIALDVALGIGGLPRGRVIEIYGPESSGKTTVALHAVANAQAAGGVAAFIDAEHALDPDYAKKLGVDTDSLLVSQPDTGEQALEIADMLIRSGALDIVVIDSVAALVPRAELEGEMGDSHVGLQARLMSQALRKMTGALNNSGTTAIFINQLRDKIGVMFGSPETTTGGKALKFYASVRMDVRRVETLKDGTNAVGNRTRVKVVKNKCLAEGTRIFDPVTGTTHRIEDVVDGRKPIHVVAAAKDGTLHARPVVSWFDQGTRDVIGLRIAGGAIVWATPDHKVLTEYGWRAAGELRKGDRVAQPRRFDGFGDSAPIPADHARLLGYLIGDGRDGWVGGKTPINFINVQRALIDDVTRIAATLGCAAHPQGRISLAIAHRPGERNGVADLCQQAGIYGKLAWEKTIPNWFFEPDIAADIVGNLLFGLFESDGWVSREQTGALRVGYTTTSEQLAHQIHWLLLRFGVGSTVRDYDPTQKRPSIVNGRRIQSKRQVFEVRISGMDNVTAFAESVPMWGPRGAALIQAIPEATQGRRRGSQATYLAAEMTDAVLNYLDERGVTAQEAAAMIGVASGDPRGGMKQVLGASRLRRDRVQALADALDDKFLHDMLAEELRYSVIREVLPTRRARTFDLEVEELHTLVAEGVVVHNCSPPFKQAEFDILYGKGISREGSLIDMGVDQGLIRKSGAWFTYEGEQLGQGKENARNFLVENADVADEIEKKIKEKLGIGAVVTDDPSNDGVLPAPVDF
YopH PTP inh: inhibitors of Yersinia enterocolitica YopH tyrosine phosphatase; fluorescence Ex485/Em525; inhibition, %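 (about 10 µM by stock and volumes)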; 0.16% of 140,000 active;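 active means inhibition of 50% or more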;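 further: controls were vehicle for no effect and minimum signal wells for full effect; inactives centre near -20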
Mtb growth: M. tuberculosis H37Rv growth inhibitors, H37Rv strain (AID 1626). one-dose inhibition, % at 10 µM; IC50 in µM for titrated hits. 0.95% of 220,000 active. M. tuberculosis H37Rv growth inhibition; higher % means a stronger effect;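 active means confirmed in a dose series; inconclusive means inhibition above 80% but not taken into the dose series; inactive means below 80% or under 30% at every dose of the series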;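 further: bacteria incubated seven days before Alamar blue readout; 0% = bacteria only wells and 100% = bacteria with antibiotic wells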
Mtb bLac sens: beta-lactam sensitization of Mtb H37Rv; M. tuberculosis H37Rv growth with meropenem, percent inhibition; hits of this screen are not shown here; inhibition, % at 25 µM; 0.27% of 330,000 active;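 active means about 74% or more and at least 40 points above the plate without the antibiotic, then above 30% in a dose series; inconclusive means first-round hits that could not be retested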;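 further: growth measured after seven days incubation then overnight dye step; 0% = bacteria only wells and 100% = bacteria with antibiotic; twin plates without the antibiotic show which effects depend on it; some results filed as inactive read as strong as hits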
Arbovirus anti repeat: also measured in Arbovirus anti; calls as there; inhibition, %; measured here: 10K subset replicate screen; many hits read low in the repeat;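 first of two repeat runs on a subset; 0% = infected and 100% = uninfected wells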
* hit, by the source's call. The list is partial (hit frequency here may not be typical).

How did CCOC(=O)c1csc(NC(=O)CN2CCN(C)CC2)n1 do in these assays?
RecA splice inh: 0.4; Mtb bLac sens: 0

What do the screens show for `Cc1ccc(S(=O)(=O)Nc2nc(C)c(C(=O)NN)s2)cc1`?
RecA splice inh: 1.7; Mtb growth: -4%; Mtb bLac sens: 1

How did Cn1c(NC(=O)c2ccccc2F)c(-c2cccs2)c(=O)c2ccccc21 do in these assays?
RecA splice inh: -1.3; Mtb growth: -5%; Mtb bLac sens: 3

How did COc1ccc(-c2nc(CS(=O)CC(=O)NCc3ccc(C)cc3)c(C)o2)cc1OC (centres undefined) do in these assays?
RecA splice inh: -4.4; Mtb bLac sens: -5

What do the screens show for `CCOC(=O)/C=C/c1ccc2c(c1)S(=O)(=O)N(c1cccc(OC)c1)[C@H]2CC(=O)OCC`?
RecA splice inh: -1.2; Mtb growth: 28%; Mtb bLac sens: 98

Results for CN(CCCC(=O)NCc1ccc2c(c1)OCO2)S(=O)(=O)c1ccc([N+](=O)[O-])cc1 ?
RecA splice inh: -3.8; Mtb bLac sens: inconclusive

What do the screens show for `COc1ccc2c(c1)oc(=O)c1ccccc12`?
Arbovirus anti: -3; RecA splice inh: -0.6; Mtb growth: 2%; Mtb bLac sens: -1; Arbovirus anti repeat: -4

Results for CCN(CC(=O)Nc1ccc2c(c1)OCCO2)C(=O)/C=C/c1cccc(OC)c1OC ?
RecA splice inh: -4.8; Mtb bLac sens: -2

What do the screens show for `O=C(Nc1ccccc1)c1ccc(CSc2ccccn2)cc1`?
Arbovirus anti: -3; RecA splice inh: -0.6; YopH PTP inh: -22; Mtb growth: 9%; Mtb bLac sens: 47

What do the screens show for `O=C(COC(=O)c1cc2ccccc2cc1O)c1ccccc1`?
RecA splice inh: -1.1; Mtb bLac sens: -6

What do the screens show for `O=C(CONS(=O)(=O)c1ccc(Cl)cc1)NCCNc1ncc(C(F)(F)F)cc1Cl`?
Arbovirus anti: -10; RecA splice inh: -0.9; Mtb growth: 3%; Mtb bLac sens: -3

Results for Fc1ccc(CNC(=S)NC2CCCCC2)cc1 ?
Arbovirus anti: 3; RecA splice inh: 14; Mtb growth: 4%; Mtb bLac sens: 3

What do the screens show for `COC(=O)c1c(NC(=O)COC(=O)c2ccccc2O)sc2c1CCCCC2`?
Arbovirus anti: 4; RecA splice inh: -0.1; YopH PTP inh: -27; Mtb growth: 6%; Mtb bLac sens: 1

Results for COc1ccc(S(=O)(=O)N2CCCCC2)cc1NC(=S)Nc1ccccc1 ?
Arbovirus anti: 3; RecA splice inh: 2.7; YopH PTP inh: -6; Mtb growth: -4%; Mtb bLac sens: -3

Results for Cc1cc2nc(CCN(Cc3cccnc3)C(=S)Nc3ccccc3)[nH]c2cc1C ?
Arbovirus anti: 3; RecA splice inh: -2.5; YopH PTP inh: -45; Mtb growth: -5%; Mtb bLac sens: -10

Results for CN(c1ccccc1)S(=O)(=O)c1cccc(C(=O)Nc2ncn[nH]2)c1 ?
RecA splice inh: -0.4; Mtb growth: 2%; Mtb bLac sens: -2

Results for O=C(CSc1nnc(-c2ccccc2)n1Cc1ccccc1)NNC(=O)c1ccccc1O ?
Arbovirus anti: -30; RecA splice inh: -0.1; YopH PTP inh: -42; Mtb growth: -5%; Mtb bLac sens: 3

Results for Cc1ccc(NC(=O)COc2ncnc3ccccc23)cc1S(=O)(=O)N1CCOCC1 ?
Arbovirus anti: -1; RecA splice inh: -1.4; YopH PTP inh: -27; Mtb growth: -7%; Mtb bLac sens: -2

Results for CCCn1nnc(NC(=O)c2ccc([N+](=O)[O-])cc2Cl)n1 ?
Arbovirus anti: 3; RecA splice inh: 3.7; Mtb growth: -3%; Mtb bLac sens: -1

How did Cc1onc(-c2ccccc2Cl)c1C(=O)N[C@@H](C)c1ccccc1 do in these assays?
RecA splice inh: 0.2; Mtb bLac sens: -9

Results for Cc1ccc(S(=O)(=O)N2CCC(C(=O)N[C@@H](C)C(=O)NC3CCS(=O)(=O)C3)CC2)cc1 (some centres undefined) ?
Arbovirus anti: 7; RecA splice inh: -0.9; YopH PTP inh: -31; Mtb growth: -2%; Mtb bLac sens: 2

How did CC1(C)CC(=O)C(C=NCCN2CCN(CCc3ccccc3)CC2)=C(O)C1 do in these assays?
Arbovirus anti: -8; RecA splice inh: -2.7; YopH PTP inh: -17; Mtb growth: 0%; Mtb bLac sens: inconclusive

How did Cc1ccc(C(=O)NC2=NCCS2)cc1 do in these assays?
RecA splice inh: -0.4; Mtb growth: 2%; Mtb bLac sens: 1

Results for Cc1ccc(S(=O)(=O)N(Cc2ccc(F)cc2)C(=O)N2CCN(C)CC2)cc1 ?
RecA splice inh: -2.7; Mtb bLac sens: 4

Results for CSc1ncccc1C(=O)Nc1ccc(OC(F)(F)F)cc1 ?
Arbovirus anti: 10; RecA splice inh: 0.9; Mtb growth: 7%; Mtb bLac sens: 65

What do the screens show for `Cc1ccccc1OC1CCN(C(=O)C2CCC(=O)N(C3CCCC3)C2)CC1` (centres undefined)?
RecA splice inh: 1.4; Mtb bLac sens: -1

How did CCOC(=O)c1[nH]c(C)c(/C(O)=C2\C(=O)C(=O)N(CCCN(CC)CC)C2c2cccnc2)c1C (centres undefined) do in these assays?
RecA splice inh: 0.4; YopH PTP inh: 31; Mtb growth: -9%; Mtb bLac sens: 0

How did Cc1ccccc1OCCC(=O)Nc1ccccc1C(=O)NC1CC1 do in these assays?
RecA splice inh: -1.4; Mtb bLac sens: -11

How did Cc1cc(C)nc(-n2ncc3c2CC(c2ccc(F)cc2)CC3=O)n1 (centres undefined) do in these assays?
Arbovirus anti: 22; RecA splice inh: 2.1; Mtb growth: -4%; Mtb bLac sens: -6

Results for CCc1ccc(C(=O)COC(=O)c2cnc(C)cn2)cc1 ?
Arbovirus anti: 2; RecA splice inh: -0.3; Mtb growth: -8%; Mtb bLac sens: 0

What do the screens show for `Cc1ccc2oc(-c3cc(NC(=O)c4ncn[nH]4)ccc3O)nc2c1`?
Arbovirus anti: -3; RecA splice inh: -8.5; Mtb growth: -3%; Mtb bLac sens: -4

How did CC(=O)c1cccc(N(C(=O)c2ccco2)C(C(=O)NC2CCCCC2)c2ccc(C)o2)c1 (centres undefined) do in these assays?
RecA splice inh: 10; Mtb bLac sens: -3

What do the screens show for `CCCOc1cccc(-c2nc3ccccc3c(=O)o2)c1`?
Arbovirus anti: 16; RecA splice inh: 43*; Mtb growth: 11%; Mtb bLac sens: 62

What do the screens show for `COCCNC(=O)COC(=O)c1ccc(S(=O)(=O)N2CCOCC2)cc1`?
Arbovirus anti: 6; RecA splice inh: 2.4; Mtb growth: -8%; Mtb bLac sens: 1

How did COc1ccc(N=C2C(=Nc3ccc(OC)cc3)N(c3ccc(OC)cc3)C(=S)N2c2ccccc2)cc1 do in these assays?
Arbovirus anti: -25; YopH PTP inh: 4; Mtb growth: 2%; Mtb bLac sens: 2

What do the screens show for `N#CC1=C(SCC(=O)c2ccccc2)NC2=C(C(=O)CCC2)C1c1ccco1` (centres undefined)?
Arbovirus anti: -4; RecA splice inh: 1.3; YopH PTP inh: -5; Mtb bLac sens: 5

What do the screens show for `Cc1[nH]c(=O)c(C#N)c2c1CCCC2`?
Arbovirus anti: 2; RecA splice inh: -3.0; YopH PTP inh: -25; Mtb growth: -10%; Mtb bLac sens: 1

Results for O=C(c1ccc(Cl)c(Cl)c1)N(Cc1ccco1)c1ccc(O)cc1 ?
Arbovirus anti: 7; RecA splice inh: 16; YopH PTP inh: -25; Mtb growth: -14%; Mtb bLac sens: -2

What do the screens show for `Cc1c(C)c2cc3c4c(oc3c(C)c2oc1=O)CCCC4`?
Arbovirus anti: -11; RecA splice inh: 0.1; YopH PTP inh: -34; Mtb growth: 6%; Mtb bLac sens: 2

How did Cc1cc(C)cc(N2C(=O)NC(=O)/C(=C\c3cc(C)n(C)c3C)C2=O)c1 do in these assays?
Arbovirus anti: -4; RecA splice inh: -3.1; Mtb growth: -2%; Mtb bLac sens: 2

How did Clc1ccc(-c2nnc(CCc3ccccc3)o2)c(Cl)c1 do in these assays?
Arbovirus anti: -5; RecA splice inh: 0.7; YopH PTP inh: -18; Mtb growth: 7%; Mtb bLac sens: 8

How did COc1ccc(OC)c(S(=O)(=O)N2CCC(c3nc4ccccc4[nH]3)CC2)c1 do in these assays?
RecA splice inh: 1.7; Mtb bLac sens: -7

How did CCCCCN=C(N)N/N=C/c1c[nH]c2ccc(OC)cc12 do in these assays?
RecA splice inh: 5.9; Mtb growth: inconclusive; Mtb bLac sens: 100

What do the screens show for `Cn1c2c(c(=O)n(C)c1=O)C(c1cccc(F)c1)C(C#N)=C(N)O2` (centres undefined)?
RecA splice inh: -1.5; Mtb growth: -15%; Mtb bLac sens: -5

Results for O=C(/C=N/O)NCc1ccncc1 ?
Arbovirus anti: 4; RecA splice inh: 0.2; YopH PTP inh: 11; Mtb growth: 2%; Mtb bLac sens: -2

Results for CC(C)CC(=O)NNC(=S)NCc1ccco1 ?
Arbovirus anti: 1; RecA splice inh: -2.9; Mtb growth: -6%; Mtb bLac sens: -9

What do the screens show for `O=C(Cc1ccc(-n2cccc2)cc1)N1CCN(c2ccccc2F)CC1`?
Arbovirus anti: 10; RecA splice inh: 2.7; YopH PTP inh: -14; Mtb bLac sens: 35

How did CCCn1c(SCC(=O)Nc2cccc(C(=O)OC)c2)nnc1-c1cccnc1 do in these assays?
Arbovirus anti: -4; RecA splice inh: 0.2; YopH PTP inh: -47; Mtb bLac sens: -11

How did N#Cc1c(NC(=O)c2ccccc2Cl)n(Cc2ccccc2)c2nc3ccccc3nc12 do in these assays?
Arbovirus anti: -21; YopH PTP inh: 26; Mtb growth: 43%; Mtb bLac sens: 15

What do the screens show for `CCOC(=O)c1c(-c2cccs2)csc1NC(=O)COC(=O)c1c(C)noc1C`?
Arbovirus anti: -4; RecA splice inh: -1.9; YopH PTP inh: -46; Mtb growth: -4%; Mtb bLac sens: -8

What do the screens show for `Cc1cc(C(=O)NCc2ccco2)c2cc(F)ccc2n1`?
Arbovirus anti: -2; RecA splice inh: 0.4; Mtb growth: 0%; Mtb bLac sens: -2

How did Cc1cc(Nc2ccc(C(=O)O)cc2)n2nc(C)nc2n1 do in these assays?
Arbovirus anti: -1; RecA splice inh: -0.1; YopH PTP inh: -7; Mtb growth: 0%; Mtb bLac sens: inconclusive

Results for COc1ccc(-c2sc(Nc3ccccc3)n[n+]2C)c(C)c1C ?
RecA splice inh: -2.1; Mtb bLac sens: 5

Results for CC(C)NC(=O)CS(=O)(=O)c1ccccc1 ?
RecA splice inh: -0.7; Mtb bLac sens: -6

What do the screens show for `C#CCOCCOCCOCCNc1nc(N2CCN(C(=O)[C@H](CCC(=O)O)n3cc(C(N)CC(C)C)nn3)CC2)nc(N2CCN(C(=O)[C@H](CCC(=O)O)n3cc(C(N)CC(C)C)nn3)CC2)n1` (some centres undefined)?
Arbovirus anti: 5; RecA splice inh: -0.6; Mtb growth: -1%; Mtb bLac sens: -9

How did CCN(CC)CCNC(=O)C(=O)Nc1ccc(C(=O)OC)cc1 do in these assays?
RecA splice inh: 25; Mtb growth: 1%; Mtb bLac sens: 0

How did CCOc1cc(C(=O)N(C)CC(=O)Nc2cccc(F)c2)ccc1OCC(=O)N1CCOCC1 do in these assays?
RecA splice inh: -0.3; Mtb bLac sens: -2

Results for Fc1c(CSC(=S)N2CCOCC2)cccc1CSC(=S)N1CCOCC1 ?
RecA splice inh: 1.3; Mtb growth: -6%; Mtb bLac sens: -1

Results for O=C(CSc1nnc(NC(=O)c2c(F)cccc2F)s1)NC1CCCCC1 ?
RecA splice inh: -1.6; Mtb bLac sens: 2

How did CC1CCC2C(C1)c1sc(=O)[nH]c1SC2(C)C (centres undefined) do in these assays?
Arbovirus anti: 11; RecA splice inh: 3.3; YopH PTP inh: -106; Mtb growth: 3%; Mtb bLac sens: -17

What do the screens show for `CN(C)CCN(C(=O)CCS(=O)(=O)c1ccccc1)c1nc2c(F)cccc2s1`?
RecA splice inh: -1.5; Mtb bLac sens: -1

Looked up one by one from the entries so far:
What do the screens show for `Cc1cc(C(=O)NCc2ccco2)c2cc(F)ccc2n1`?
Arbovirus anti: -2; RecA splice inh: 0.4; Mtb growth: 0%; Mtb bLac sens: -2

What do the screens show for `CN(C)CCN(C(=O)CCS(=O)(=O)c1ccccc1)c1nc2c(F)cccc2s1`?
RecA splice inh: -1.5; Mtb bLac sens: -1

How did Cc1cc(Nc2ccc(C(=O)O)cc2)n2nc(C)nc2n1 do in these assays?
Arbovirus anti: -1; RecA splice inh: -0.1; YopH PTP inh: -7; Mtb growth: 0%; Mtb bLac sens: inconclusive

How did CCOc1cc(C(=O)N(C)CC(=O)Nc2cccc(F)c2)ccc1OCC(=O)N1CCOCC1 do in these assays?
RecA splice inh: -0.3; Mtb bLac sens: -2

Results for CC(C)NC(=O)CS(=O)(=O)c1ccccc1 ?
RecA splice inh: -0.7; Mtb bLac sens: -6
